From PubChem
Rango-impB inh: prevents formation of the Rango-importin beta complex | Rango CFP/YFP FRET sensor + importin beta, 45 min | Potency, µM (top dose mostly 92.2 µM), inactives show at the highest dose inhibition of complex formation | hit rate 0.031% among 340,000 | AID 540263; active = rising FRET ratio curve, often small or poorly fitted; inconclusive = mostly compound fluorescence or quenching in the first reads; inactive = flat curves in all reads;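 note: potency is the fitted concentration of half-maximal effect; 0% = DMSO wells and 100% = buffer wells lacking importin beta; nearly all actives have a fitted effect of over 15% in size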
Target sequence (Q14974 whole entry, looked up): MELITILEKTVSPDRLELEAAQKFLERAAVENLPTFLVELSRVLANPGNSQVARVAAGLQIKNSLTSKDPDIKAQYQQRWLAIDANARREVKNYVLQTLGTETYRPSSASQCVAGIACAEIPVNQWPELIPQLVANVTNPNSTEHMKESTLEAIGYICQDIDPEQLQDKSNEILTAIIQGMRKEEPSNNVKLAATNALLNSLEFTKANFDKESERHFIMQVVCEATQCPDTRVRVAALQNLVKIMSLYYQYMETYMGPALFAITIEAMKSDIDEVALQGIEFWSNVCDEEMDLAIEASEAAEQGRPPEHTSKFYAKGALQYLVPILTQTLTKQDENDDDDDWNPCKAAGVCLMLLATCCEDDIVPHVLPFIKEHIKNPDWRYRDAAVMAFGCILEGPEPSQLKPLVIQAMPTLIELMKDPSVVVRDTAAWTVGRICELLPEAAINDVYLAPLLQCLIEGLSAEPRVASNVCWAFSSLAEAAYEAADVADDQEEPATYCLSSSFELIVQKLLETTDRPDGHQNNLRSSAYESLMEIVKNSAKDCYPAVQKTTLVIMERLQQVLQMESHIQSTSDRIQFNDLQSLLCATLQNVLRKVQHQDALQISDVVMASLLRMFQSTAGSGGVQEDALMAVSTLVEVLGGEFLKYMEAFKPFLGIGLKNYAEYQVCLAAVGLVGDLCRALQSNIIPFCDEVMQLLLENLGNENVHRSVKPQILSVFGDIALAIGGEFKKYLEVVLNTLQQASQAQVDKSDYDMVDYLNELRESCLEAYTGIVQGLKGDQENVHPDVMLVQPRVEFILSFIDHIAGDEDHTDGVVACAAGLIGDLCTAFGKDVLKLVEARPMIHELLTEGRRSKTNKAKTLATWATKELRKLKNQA
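FRET biosensor (snurportin 1 IBB flanked by EYFP and cerulean), 50 nM, with compound 5 min, then 0.125 microM importin beta in PBS, 1 mM DTT, 0.02% Tween-20, 0.1% BSA. CFP/YFP ratio read after 45 min at room temperature; pre-read flags interference.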
Rango release inh: prevents RanGTP from dissociating the Rango-importin beta complex. O95149+P62826. Biochemical FRET Rango-importin beta, RanGTP-induced dissociation. Potency, µM (highest dose often 46.1 µM), for inactives: top-dose activity change, negative = inhibition. hit rate 0.071% among 340,000. AID 540253; active means falling FRET ratio curve, often poorly fitted, with flat reads before Ran was added; inconclusive means other falling curves, or compound fluorescence or quenching; inactive means flat or rising ratio curve;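 note: potency is the fitted concentration of half-maximal effect; % of control where 0% means no effect; nearly all actives have a fitted effect of over 45% in size; -100% = wells without RanGTP and RCC1; the record marks most hits as doubtful in a second field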
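Rango FRET biosensor (snurportin-1 IBB flanked by N-terminal EYFP and C-terminal CFP10) at 0.1 uM, with 0.25 uM importin beta in PBS, 1mM DTT, 0.02% Tween-20, 0.1% BSA. 0.6 uM Ran, 2mM GTP and 0.2 uM RCC1 were then added for 45 min at room temperature. Inhibition read as loss of FRET rise.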
miR-21 FLuc: raises the signal of a miR-21 reporter. HeLa miR-21 FLuc reporter, luciferase, 48 h. Potency, µM (titrated, usually from 38.3 µM), without a hit: at the highest dose reporter change, positive = more light. 340,000 tested, under 10 active. AID 2288; active = well fitted rising curve with a large enough effect; inconclusive = small, poorly fitted or top-dose-only effect; inactive = no such curve, though single readings can be large or run the other way;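 note: % of control where 0% means no effect; miR-21 action dims this reporter so a rising signal means less miR-21 action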
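HeLa cells stably expressing CMV-driven firefly luciferase with a downstream miR-21 binding sequence, endogenously expressing miR-21, were treated with titrations (up to about 40uM final) for 48 hours at 37 degree Celsius. Luciferase luminescence was read after lysis.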
GLA inh pH 4.5: alpha-galactosidase A (human) inhibition, pH 4.5; P06280; purified enzyme, 4-MU-alpha-Gal fluorescence, pH 4.5; activity change, negative = inhibition, % at 105 µM; 230,000 tested, under 10 active; inconclusive = small, poorly fitted or top-dose-only inhibition, or a rising curve; inactive = flat fitted curve, though single readings scatter; no compound was filed as active;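 note: 0% = full activity with enzyme and -100% = basal without enzyme; dose as in the result columns while the protocol names 77 µM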
* = called active by the depositor; u = inconclusive; x = no result given; & = joins results of further samples; [ ] = another dose, or the depositor's remark.

cpd	smiles	Rango-impB inh	miR-21 FLuc	GLA inh pH 4.5	Rango release inh
1	CC(=O)Nn1c(COc2ccccc2C)nc2ccccc2c1=O	-0.9%	-9%	4	4%
2	Cc1ccc(/C=N/n2cnc3sc4c(c3c2=O)CCCC4)o1	u	-23%	5	0%
3	Oc1c(N=NC(=S)Nc2ccccc2F)c2ccccc2n1Cc1cccc(Cl)c1	-0.8%	3%	0[21.1 µM]	10%
4	CC(C)(C)c1ccccc1NC(=O)NC1CCN(Cc2c(F)cccc2Cl)CC1	2.7%	-3%	-4	9%
5	Nc1ncnc2c1ncn2[C@@H]1O[C@H](CNCc2cccc(C#Cc3ccccc3)c2)[C@@H](O)[C@H]1O	-0.6%	x	x	-4%
6	NC(=O)CSc1nnc(NC(=O)C2CC(=O)N(c3ccc(F)cc3)C2)s1 (stereo not drawn)	-1.1%	0%	x	-8%
7	Cc1nn(-c2ccccc2)c(C)c1NC(=O)COc1ccc(C#N)cc1	-1.6%	-11%	-1	-14%
8	O=C(NNC(=O)C1CCN(c2ncccn2)CC1)c1ccccc1	-0.1%	-1%	1	0%
9	Cc1cc(C)nc(NNC(=O)NC2CCCCC2)n1	-0.7%	0%	0	-15%
10	CC1CC(C)CN(S(=O)(=O)c2ccc(C(=O)N(C)Cc3ccccc3)cc2)C1 (stereo not drawn)	1.0%	x	x	3%
11	O=C(CCNC(=O)c1ccc(Cl)cc1)NCCC1=CCCCC1	3.1%	x	x	6%
12	O=C(OCC1OC(n2cnc3c(N(C(=O)c4ccccc4)C(=O)c4ccccc4)ncnc32)C(O)C1F)c1ccccc1 (stereo not drawn)	2.8%	0%	-7	7%
13	Cc1cccc(C=CC(=O)c2ccc(Cl)cc2)c1	-1.0%	x	x	-13%
14	O=C(O)c1cc(S(=O)(=O)Nc2cccc(S(=O)(=O)N3CCCC3)c2)ccc1Cl	2.7%	x	x	10%
15	CCOCc1c(C(=O)Nc2ccc(OC)nc2)oc2ccccc12	6.2%	-1%	x	0%
16	COC(=O)CC1Sc2ccccc2NC1=O (stereo not drawn)	0.5%	1%	0	0%
17	COCCCNC(NC(=O)c1ccc(C)cc1)C(Cl)(Cl)Cl (stereo not drawn)	2.9%	-11%	3	-12%
18	O=C(c1ccc(Cn2cc([N+](=O)[O-])cn2)o1)N1CCCC1	2.0%	-1%	x	7%
19	Cc1cc(NC(=O)c2sc(Nc3ccc(F)cc3)nc2N)no1	5.4%	-27%	1	3%
20	CC1=NNC(=O)C1CCC(=O)N/N=C\c1ccccc1[N+](=O)[O-] (stereo not drawn)	1.2%	-3%	-24	4%
21	CC1CCCCN1CCCNC(=O)c1nn(C)c2c1CSc1ccccc1-2 (stereo not drawn)	0.0%	-3%	x	-4%
22	CN(C)C(=O)CSc1nnc(-c2cc(-c3cccs3)nc3ccccc23)o1	-4.8%	5%	16	-19%
23	CC(O)CN1CC(O)=C(c2nc3ccccc3s2)C1=N (stereo not drawn)	-1.1%	-35%	8	-22%
24	CC(C)(C)c1cc(NC(=O)Nc2ccccc2OC(F)(F)F)no1	1.9%	4%	x	-13%
25	CCN(Cc1cnn(C)c1)C(=O)c1ccc(OC2CCN(S(=O)(=O)N(C)C)CC2)cc1	0.5%	9%	6	-3%
26	CC(=O)c1cc(C)ccc1OC(=O)c1cccc2nc(C)oc12	1.0%	-12%	-9	-3%
27	CCS(=O)(=O)N1Cc2ccccc2CC1C(=O)Nc1nnc(SCc2c(Cl)cccc2Cl)s1 (stereo not drawn)	u	-13%	-1	0%
28	COc1ccccc1NC(=O)CSCc1cc(=O)n2ccsc2n1	-1.1%	-2%	x	-16%
29	Cc1nc2sc(C(c3cccc(F)c3)N3CCN(C(=O)c4ccco4)CC3)c(O)n2n1 (stereo not drawn)	1.6%	-8%	6	25%
30	Cn1c(=O)c2c(-c3ccccc3)n(C3CCCCC3)cc2n(C)c1=O	6.4%	-6%	-3	-4%

Continuation.
cpd	smiles	Rango-impB inh	miR-21 FLuc	GLA inh pH 4.5	Rango release inh
31	COc1ccc(CCN2CC(C(=O)NCCc3cnn(C)c3)CCC2=O)cc1 (stereo not drawn)	2.3%	1%	x	3%
32	CCC1(C)CC(c2nc(-c3ccc(OC)cc3)cs2)CCS1 (stereo not drawn)	-0.2%	-9%	3	-7%
33	O=C(C[C@@H]1C/C=C/CC[C@@H](Cc2ccc(F)cc2)C(=O)O[C@H](c2ccccc2)CNC1=O)NCCO	1.2%	x	x	0%
34	CCC(C)[C@H](NC(=O)NC1CC1)C(=O)O (stereo partly drawn)	-1.9%	2%	2	-15%
35	CC(C)(C)C1CCC(OC(=O)CCC(=O)Nc2ccccc2)CC1 (stereo not drawn)	2.9%	-2%	-18	6%
36	Cc1nc(-c2ccccc2O)n(S(=O)(=O)N(C)C)n1	-2.6%	-16%	-13	0%
37	COc1ccccc1C(CNC(=O)c1ccc(NS(=O)(=O)c2ccc(C(C)=O)cc2)cc1)N1CCCC1 (stereo not drawn)	0.6%	x	x	-15%
38	COc1ccc(NC(=O)CSc2nccc(C)n2)cc1	0.6%	-15%	3	-19%
39	CC(=O)c1cccc(NC(=O)CN(Cc2ccccc2)S(C)(=O)=O)c1	4.8%	3%	-5	5%
40	COc1ccc(C(C(C(=O)c2ccco2)N2CCOCC2)N2CCOCC2)cc1 (stereo not drawn)	0.2%	-3%	1	10%
41	Cc1cccc(-c2nnc(SCC3CNC(=O)O3)n2-c2ccc(Cl)cc2)c1 (stereo not drawn)	1.0%	-9%	-9	-6%
42	COc1ccc(-c2ccc(OC(=O)NC3CCS(=O)(=O)C3)cc2)cc1 (stereo not drawn)	-1.3%	-51%	-7	2%
43	COC(=O)c1sc(N)c(C(=O)OC)c1COC(=O)C1CC(=O)N(Cc2ccco2)C1 (stereo not drawn)	0.9%	1%	1	15%
44	CC(=O)Nc1ccc(S(=O)(=O)NCCC(=O)OC(C)C(=O)c2ccc(C)cc2)cc1 (stereo not drawn)	0.7%	1%	x	11%
45	CC(C)CCN(C(=O)Cc1ccccc1F)c1c(N)n(Cc2ccccc2)c(=O)[nH]c1=O	-6.1%	2%	-4[21.1 µM]	1%
46	O=C(c1cccc(F)c1)N1CCN(S(=O)(=O)Cc2ccccc2)CC1	-2.4%	0%	-4	-8%
47	COc1ccc(OCc2nnc3n2N=C(c2ccc(C)cc2)CS3)cc1	-2.3%	-10%	-9	4%
48	Cn1c(=O)cc(OCC(=O)NCCC2=CCCCC2)c2ccccc21	-0.8%	0%	-2	0%
49	COc1ccccc1NC(=S)NC1CCCCCCCCCCC1	u	2%	3	1%
50	CCOC(=O)c1cc2occc2n1Cc1ccc(F)cc1	-0.6%	-4%	4	u
51	Cc1ccc(C(=O)NCC(=O)OCC(=O)NCCc2ccccc2)s1	2.9%	2%	-7	26%
52	CCOC(=O)CN1C(=O)/C(=C/c2cccc(Br)c2)Oc2ccccc21	1.1%	-4%	x	3%
53	O=C(NC1CCCCC1)c1ccc(COc2ccccc2)o1	-4.3%	x	x	28%
54	O=[N+]([O-])c1ccccc1/C=C/C=N/n1c(-c2ccc(Cl)cc2)n[nH]c1=S	4.0%	-4%	-9	-11%
55	COc1ccc2nc(NC(=O)c3ccccc3[N+](=O)[O-])sc2c1	8.6%	-28%	x	-4%
56	CCCSC1=N/C(=C\c2ccc3c(c2)OCO3)C(=O)S1	u	-3%	5	u
57	CSc1ccccc1C(=O)C1CCCN(C(=O)NC(C)C)C1 (stereo not drawn)	0.4%	-2%	0	u
58	Cc1ccccc1Oc1nnc(-c2cccs2)c2ccccc12	0.1%	-14%	1	6%
59	CCN(C(=O)COC(=O)CSc1ccc(C(N)=O)cc1[N+](=O)[O-])C1CCCCC1	0.6%	-6%	x	-2%
60	Cn1nccc1C(=O)c1ccc(Cl)cc1	2.8%	-8%	-3	-21%

Further compounds
cpd	smiles	Rango-impB inh	miR-21 FLuc	GLA inh pH 4.5	Rango release inh
61	Cc1cccc(-c2noc(CN(C)C(=O)c3ccco3)n2)c1	4.1%	-42%	x	-2%
62	O=C(COc1ccccc1[N+](=O)[O-])Nc1cccc(S(=O)(=O)N2CCCC2)c1	-0.1%	x	x	17%
63	COCCCNC(=O)CN1C(=O)c2cccc3cccc1c23	u	-4%	x	u
64	O=C(Cc1ccccc1)NN1C(=O)C2C3C=CC(C3)[C@@H]2C1=O (stereo partly drawn)	2.5%	-5%	-6	5%
65	COc1cc(SC)ccc1C(=O)Nc1ccc2c(c1)CCC2	4.3%	-70%	x	0%
66	COc1ccc(-c2cc(C)no2)cc1S(=O)(=O)N1CCN(c2ccccc2F)CC1	3.4%	-3%&25%	x	3%
67	CCC(C)n1c(-c2ccco2)nc2nc3ccccc3nc21 (stereo not drawn)	x	1%	u	x
68	CCOc1ccc(NC(=O)CN2CCN(CC(=O)Nc3cccc(F)c3)CC2)cc1	-1.6%	0%	-3	7%
69	Cc1cccc(S(=O)(=O)N2CCC(CO)(Cc3ccccc3)CC2)c1	2.8%	-4%	1	2%
70	NC(=O)c1cc2n(n1)C(C(F)(F)F)CC(c1ccco1)N2 (stereo not drawn)	0.0%	-5%	1	-8%
71	CCN(CC(=O)NCc1cccs1)C(=O)c1ccc(NS(=O)(=O)c2ccc(C(C)=O)cc2)cc1	1.7%	x	x	11%
72	Cc1cc(C)n(-c2nnc(C)n2N)n1	-2.2%	-4%	27	-6%
73	Cn1c(=O)n(CCc2ccccc2)c(=O)c2c1ncn2Cc1ccccc1	0.4%	19%	-9	30%
74	O=C(Nc1nc2ccc([N+](=O)[O-])cc2s1)c1ccco1	x	-34%	10	x
75	CCCCc1ccc(NC(=S)Nc2ccc(Cl)c(S(=O)(=O)N(C)C)c2)cc1	-2.2%	13%	-5	-12%
76	CN(CCc1ccccc1)C(=O)c1ccc(NC(=O)Cc2ccc(NC(=O)C3CCCN(C(=O)C4CC4)C3)cc2)cc1 (stereo not drawn)	-4.1%	x	x	-23%
77	C[C@H](CO)N1C[C@H](C)[C@H](CN(C)Cc2ccccc2)Oc2c(NC(=O)Nc3ccc(F)cc3)cccc2C1=O	1.9%	x	x	-5%
78	CC1(CCc2ccccc2)NC(=S)N(c2ccccc2)N1 (stereo not drawn)	-2.7%	-34%	11	-13%
79	N[C@@H](Cc1ccc(O)cc1)C(=O)Nc1ccc2ccccc2c1	-1.7%	x	x	-13%
80	C#CCOCCOCCOCCNc1nc(N2CCN(C(=O)[C@H](CCCN=C(N)N)n3cc(C(N)[C@H](C)CC)nn3)CC2)nc(N2CCN(C(=O)[C@H](CCCN=C(N)N)n3cc(C(N)[C@@H](C)CC)nn3)CC2)n1 (stereo partly drawn)	65µM*	x	x	u
81	C=CCNC(=O)c1ccccc1NC(=O)c1cccc2ccccc12	0.6%	4%	-8	19%
82	Cc1cccc(C)c1N1C(=O)CC(N2CCN(S(=O)(=O)c3ccccc3F)CC2)C1=O (stereo not drawn)	-0.7%	x	x	-24%
83	COc1cccc(C2CC(c3ccc(Cl)cc3Cl)n3nc(N)nc3N2)c1 (stereo not drawn)	2.4%	-9%	-2	0%

Only Rango-impB inh, GLA inh pH 4.5 and Rango release inh, for two of the compounds above:
item | canonical_smiles | Rango-impB inh | GLA inh pH 4.5 | Rango release inh
56 | CCCSC1=N/C(=C\c2ccc3c(c2)OCO3)C(=O)S1 | u | 5 | u
57 | CSc1ccccc1C(=O)C1CCCN(C(=O)NC(C)C)C1 (stereo not drawn) | 0.4% | 0 | u

Molecules from the list above containing a COOH group, in the order listed:
cpd	smiles	Rango-impB inh	miR-21 FLuc	GLA inh pH 4.5	Rango release inh
14	O=C(O)c1cc(S(=O)(=O)Nc2cccc(S(=O)(=O)N3CCCC3)c2)ccc1Cl	2.7%	x	x	10%
34	CCC(C)[C@H](NC(=O)NC1CC1)C(=O)O (stereo partly drawn)	-1.9%	2%	2	-15%

This is a subset (hit frequency here may not be typical).
